High-throughput results deposited in PubChem by ICCB-Longwood Screening Facility, Harvard Medical School.
Ba CapD inh: blocks the Bacillus anthracis CapD enzyme | purified CapD enzyme, fluorescence intensity read-out; hits give low values; some hits fall short of the stated cut | z-score (test concentration not listed) | 0.23% of 140,000 active | AID 492967;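 active = z-score under -4 in either of two replicates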;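 also: stock transfer was 100 nL into about 40 µL; score is relative to mean and spread of the plate; one replicate is shown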
AID504770: growth inhibitors of E. coli YBA685 in a screen for V. cholerae RctB (chromosome II replication) inhibitors; E. coli YBA685 rctB-dependent plasmid, OD600 growth, 3 h; hits give low values; z-score (no concentration beside the values); 0.27% of 130,000 active; AID 504770;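 active = z-score under -2 on both plates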;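 also: wells of about 30 µL received 100 nL stock; score is relative to mean and SD of the test wells; the first replicate is given; strong numbers were not always called active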
The depositor's hits bear a star; i = inactive; x = no result given. Rows are unselected; any-hit rate near 0.37%.

SMILES | Ba CapD inh | AID504770
Cc1cc2nnc(SCC(=O)c3ccc4c(c3)OCO4)n2c2ccccc12 | 0.01 | x
CS(=O)(=O)NC(C(=O)O)c1ccccc1 (configuration not stated) | -0.095 | -0.5
CCOC(=O)Cc1cc(=O)oc2cc(OCC)ccc12 | 45 | -0.5
CCn1c(SCC(=O)Nc2ccccc2)nnc1-c1c[nH]c2ccccc12 | -0.93 | -0.4
CC(=O)N1CCN(C(=S)NC2CC3CCC2C3)CC1 (configuration not stated) | x | 0.15
Oc1ccc2n[nH]nc2c1 | 5.4 | 0.6
CCCCOC(=O)c1cc(-c2ccc(C=C3C(=O)NC(=O)NC3=O)o2)ccc1Cl | 0.48 | x
CC(C)(C)c1ccc(C(=O)N2CCC(c3c[nH]c4ccccc34)CC2)cc1 | -0.35 | x
COc1cc(-c2nc3cc(Cl)ccc3o2)cc(OC)c1OC | x | 0.5
Clc1ccccc1CSc1nccc(-c2ccco2)n1 | -1.2 | 0.4
CC1=C(C(=O)Nc2cccc(F)c2)C(c2ccc3c(c2)OCO3)C2=C(CC(c3ccccc3)CC2=O)N1 (configuration not stated) | 37 | x
O=c1[nH]nc(C(F)(F)F)n2cccc12 | 0.27 | -0.15

Gathered by group: those above with an aryl thioether with sulfur outside any ring (three)
SMILES | Ba CapD inh | AID504770
Cc1cc2nnc(SCC(=O)c3ccc4c(c3)OCO4)n2c2ccccc12 | 0.01 | x
CCn1c(SCC(=O)Nc2ccccc2)nnc1-c1c[nH]c2ccccc12 | -0.93 | -0.4
Clc1ccccc1CSc1nccc(-c2ccco2)n1 | -1.2 | 0.4

New compounds follow
SMILES | Ba CapD inh | AID504770
Cn1c(SCc2cccc(C#N)c2)nnc1C(F)(F)F | -0.31 | 0.75
N#CC1=C(N)N=C(SCc2ccccc2)C(C(N)=O)C12CCCCC2 (configuration not stated) | -0.95 | 0.3
Cc1cccc(OC2CCS(=O)(=O)C2)c1 (configuration not stated) | x | -0.55
COC(=O)CSc1nc2ccc(NC(=O)c3ccccc3C(=O)N3CCOCC3)cc2s1 | 0.6 | x
O=c1[nH]cnc2nc3c4ccccc4c4ccccc4c3nc12 | x | 0.1
C=CCSc1nc(-c2ccc(OC)cc2)c(C#N)c(=O)n1CC=C | 5 | -1.5
CC(=O)N(C(C)=O)c1ncnc2sc3c(c12)CCCC3 | -5.4* | 1.9
N#Cc1cc2cc(Br)ccc2oc1=O | x | -1
O=C(Cn1ncc2c([nH]c3ccccc32)c1=O)NCCC1=CCCCC1 | 0.62 | -0.95
O=S1OCC(COc2cccc3ccccc23)O1 (configuration not stated) | 0.32 | -0.85
COc1ccccc1NC(=O)C1CC(=O)N(C)C(=Nc2ccccc2)S1 (configuration not stated) | -0.55 | -0.25
Cc1c(NC(=O)CSc2nnc(Cc3ccccc3)o2)c(=O)n(-c2ccccc2)n1C | 0.91 | -0.1
COc1ccc(NC(=O)c2ccccc2OS(=O)(=O)N(C)C)cc1 | -0.11 | x
O=S(=O)(c1ccc(-n2cnnn2)cc1)N(Cc1ccccn1)C1CC1 | x | -0.1
CC(=O)N(Cc1ccc(Br)cc1)c1ccccc1C(=O)O | x | 2.1
COC(=O)CN1C(c2ccc(Cl)cc2)=Nc2ccc(Br)cc2C1c1ccccc1 (configuration not stated) | 0.45 | x
Cc1ccc(C)n1CCC(=O)O | x | 0.5
O=C(c1cccc(S(=O)(=O)N2CCc3ccccc32)c1)N1CCCCC1CO (configuration not stated) | x | 0.05
O=C(CSc1nnc(-c2ccccc2)c(-c2ccccc2)n1)Nc1cc(C(F)(F)F)ccc1Cl | -0.53 | x
COc1ccc(N2CCN(C(=O)CSc3nc4[nH]ncc4c(=O)n3-c3ccc(C)c(Cl)c3)CC2)cc1 | 0.16 | x
Nc1c(C(=O)NCc2ccccc2)sc2nc3c(c(-c4ccco4)c12)CCCCC3 | 0.11 | x
Cc1ccc(C)c(-c2csc(-c3cc4ccc(O)cc4oc3=O)n2)c1 | 1.6 | x
CCC1CCCCN1C(=O)CSc1nc2c([nH]c3ccccc32)c(=O)n1-c1ccccc1 (configuration not stated) | 2.1 | -0.45
O=C(/C=C/c1ccccc1)N1CCCc2ccccc21 | -0.27 | -0.75
Cc1nnsc1C(=O)Nc1ccc(N(C)C)cc1 | 0.01 | -0.75
Cc1ccc(C(=O)NCCN2C(=O)S/C(=C\c3ccc(F)cc3)C2=O)cc1NC(=O)c1ccco1 | x | -0.45
CC1CC[C@@]2(NC1)OC1CC3C4CC=C5CC(O)CCC5(C)C4CCC3(C)C1[C@@H]2C (some centres not stated) | 0.15 | x
FC(F)(F)c1cc(-c2ccc(-c3ccn[nH]3)o2)cc(C(F)(F)F)c1 | 63 | -0.2
CCN(CC)Cc1cc(NC(=O)OCCCCCc2ccccc2)ccc1O | -0.17 | x
Cc1cccc(-n2c(C)nc3cc(C(=O)NCc4ccc(F)cc4)ccc32)c1 | 0.39 | -1
Cc1ccccc1-c1nnc(NC(=O)C(C)SC2=NCCS2)s1 (configuration not stated) | 0.005 | -1.2
Cc1cccn2c(=O)c(/C=C3\SC(=S)N(CC(C)C)C3=O)c(N3CC(C)OC(C)C3)nc12 (configuration not stated) | -0.66 | x
CCN(CC)c1ccc(C(=O)NN)cc1 | x | -0.25
Cc1cc(C)n2nc(C(=O)OCC(=O)N3CCN(S(=O)(=O)c4ccccc4)CC3)nc2n1 | x | -0.15
NNC(=O)CS(=O)Cc1cccc(C(F)(F)F)c1 (configuration not stated) | -0.59 | 2.2
CCOC(=O)C1CCN(C2=NC(C)C(=O)N2c2ccc(C)cc2)CC1 (configuration not stated) | -0.015 | -0.5
CCN(CC)CCNc1ccnc2cc(Cl)ccc12 | 35 | 0.25
COc1ccccc1-n1cnnc1SCc1ccc(C)cc1 | x | -0.4
O=C(NCC(c1ccco1)N1CCOCC1)c1ccccc1 (configuration not stated) | x | 0.4
O=C(Nc1nc(-c2cc3ccccc3oc2=O)cs1)C1CCCCC1 | i | -0.5
CCN(CC)S(=O)(=O)c1ccc(-n2cnnn2)c(C)c1 | x | 1.6
Cc1oc(C(C)(C)C)cc1C(=O)O | 0.96 | -1.1
O=C1CC(Nc2ccc(N3CCOCC3)cc2)C(=O)N1c1ccccc1 (configuration not stated) | -0.11 | 0.05
O=[N+]([O-])c1c(NCCCO)cc(N2CCN(c3cccc(Cl)c3)CC2)c2nonc12 | 0.2 | x
CC1Cc2ccccc2N1C(=O)CSc1ncccc1C(=O)O (configuration not stated) | x | 0
N#Cc1ccc(-c2ccc(F)cc2)n(CC(=O)N2CCCC2)c1=O | x | 0.05
O=C(NCc1ccccc1)N1CCOc2ccccc21 | -0.17 | -0.45
CC(C)(C)NC(=S)N1CCSCC1 | -0.14 | 0.7
COC(=O)c1ccc2c(c1)N(Cc1nc(-c3cccc(Cl)c3)oc1C)C(=O)C1CCCN21 (configuration not stated) | 0.17 | -0.3
CCCCNC(=S)Nc1ccc(F)cc1 | -0.31 | x
CCn1c(=NC(=O)COc2ccc(OC)cc2)sc2cccc(F)c21 | x | 0.9
Cc1ccc(NCc2n[nH]c(=S)n2-c2ccccc2)cc1 | -0.25 | -0.05
COc1ccc2c(c1)-c1ccccc1S(=O)(=O)N2 | 16 | 0.5
CC(C)(CC(=O)O)CC(=O)Nc1ccc2c(c1)OCCCO2 | -0.67 | x
O=C(O)c1nc(Cl)c(Cl)c(N2CCCCC2)c1Cl | x | -0.8
O=C(O)c1ccccc1C(=O)N(Cc1ccccc1)Cc1ccccc1 | 0.34 | -0.6
NC(=O)CSc1nc(NC2CC2)c2ccccc2n1 | x | -0.25
O=c1[nH]nc(CSc2ccccn2)c2ccccc12 | 0.015 | 0.25
Cc1cccc(-c2nc3ccccc3c(=O)n2CC(=O)N2CCN(c3ccc(F)cc3)CC2)c1 | -0.6 | x
O=C(CSc1nc2[nH]ncc2c(=O)n1-c1cccc2ccccc12)NCc1ccccc1Cl | -0.88 | x

(list continues)
SMILES | Ba CapD inh | AID504770
CC1CC(=O)c2c(F)c(F)cc3c(=O)c(C(=O)O)cn1c23 (configuration not stated) | -0.51 | x
COc1ccc(-c2nn(CCC#N)cc2/C=N\NC(=O)c2ccccc2)cc1 | x | -0.9
COc1ccc(-c2c(C)oc3cc(OC(C)=O)ccc3c2=O)cc1 | -0.055 | -0.2
CCOC(=O)C(NC(=O)c1ccccc1)(Nc1sc2c(c1C#N)CCC(C(C)(C)C)C2)C(F)(F)F (configuration not stated) | -0.65 | x
O=C1CCCc2cc(S(=O)(=O)N3CCCC(C(=O)N4CCCCC4)C3)ccc2N1 (configuration not stated) | 0.68 | -0.3
C[C@]12CCC(=O)C=C1CCC1C2[C@@H](O)C[C@@]2(C)C1CC[C@]2(O)C(=O)CO (some centres not stated) | -0.2 | 0.35
CCCN(CC1CC1)C(=O)CSc1nnnn1-c1ccc(OC)cc1 | x | -0.65
CCCNS(=O)(=O)c1ccc2c(c1)CC(C)N2C(=O)C1CCC1 (configuration not stated) | -0.72 | -1.1
CCOP(=S)(OCC)C(O)c1ccccc1 (configuration not stated) | -0.68 | -0.7
O=C(COc1ccc2ccccc2c1)Nc1cccc(-c2nc3ncccc3o2)c1 | -0.38 | 0.75
Cc1ccc(-n2c(C)nc3cc(Cl)ccc3c2=O)cc1Cl | 0.26 | x
COc1ccccc1N1CCN(C(=O)CSc2nc3ccccc3c(=O)n2NC(=O)CCc2c[nH]c3ccccc23)CC1 | -0.36 | x
CCOC(=O)C1=C(c2ccccc2)S/C(=C2/C(=S)C(C)(C)N(C(=O)C(C)C)c3cc(C)c(C)cc32)S1 | -0.3 | x
CC1=CC(C)C2COC(c3cccnc3)C1C2C (configuration not stated) | x | 0.5
Cc1cc(C)nc(Sc2ccc(OS(C)(=O)=O)cc2)n1 | -0.2 | x
Cc1cccc(C)c1NC(=O)COc1ncnc2ccccc12 | 0.83 | 0.35
Cc1ccc(C(=O)NCCn2c(C)cc3ccccc32)cc1 | -1.2 | 2
Cc1ccc(N2CC(O)(c3ccc(C)cc3)[N+]3=C2SCCC3)cc1 (configuration not stated) | 0.13 | x
COc1cc([N+](=O)[O-])ccc1N1C(=O)C2C3C=CC(O3)C2C1=O (configuration not stated) | -0.81 | x
CC(=O)Oc1ccccc1C(=O)O | -0.35 | -0.15
CCOC(=O)N1CCN(CC(O)Cn2c(=O)c3c(ncn3C)n(C)c2=O)CC1 (configuration not stated) | -1.3 | 2.2
CC(C)(C)c1nocc1C(=O)Nc1ccc(Cl)cc1 | 0.005 | -0.85
Nc1cc(N)nc(SCc2noc(-c3ccc(Cl)cc3)n2)n1 | x | -0.1
C=CCc1ccc2c(c1)OCO2 | -0.02 | -1.6
O=C(c1cc(-c2ccccc2)on1)N(Cc1ccccc1)c1ccccc1 | -0.27 | 0.7
CCCOc1ccc(C2NC(=O)NC(C)=C2C(=O)OCc2ccc(OC)cc2)cc1 (configuration not stated) | -0.39 | x
C=CCN1C(=O)/C(=N\N=C\c2c(C)nn(-c3ccccc3)c2C)c2ccccc21 | x | -0.05
Cc1ccc(-n2nc(C(=O)O)c(/C=C/c3ccc(Cl)cc3Cl)c(C#N)c2=O)cc1C | -3.3 | -0.9
Clc1cccc(Cl)c1OCCCn1ccnc1 | 0.85 | -0.25
CCOC(=O)C1CCCN(C(=O)c2ccccc2F)C1 (configuration not stated) | -0.08 | 0.6
O=C(Nc1ccc(S(=O)(=O)N2CCOCC2)cc1)C(F)(F)C1(F)OC(F)(F)C(F)(F)C1(F)F (configuration not stated) | x | -0.8
NNC(=O)c1cc2cccc3c2n(c1=O)CC3 | 4.8 | x
O=C(Nc1ccc(F)cc1)C(c1ccccc1)N1CCN(c2ccccc2F)CC1 (configuration not stated) | x | 1.7
CCOC(=O)CC1C(=O)NCCN1C(=O)c1cc2c(=O)n3ccccc3nc2s1 (configuration not stated) | x | 0.1
Nc1ccn(Cc2ccc(F)cc2)n1 | x | 2.1
CCOC(=O)C1=C(C)N=c2s/c(=C\c3cc(Br)cc(OC)c3O)c(=O)n2C1c1ccc(OC)c(OC)c1 (configuration not stated) | -0.18 | x

7 entries picked at random from those above, as already listed:
SMILES | Ba CapD inh | AID504770
Clc1cccc(Cl)c1OCCCn1ccnc1 | 0.85 | -0.25
CCOC(=O)C1CCCN(C(=O)c2ccccc2F)C1 (configuration not stated) | -0.08 | 0.6
Nc1ccn(Cc2ccc(F)cc2)n1 | x | 2.1
NNC(=O)c1cc2cccc3c2n(c1=O)CC3 | 4.8 | x
C=CCN1C(=O)/C(=N\N=C\c2c(C)nn(-c3ccccc3)c2C)c2ccccc21 | x | -0.05
CCOC(=O)CC1C(=O)NCCN1C(=O)c1cc2c(=O)n3ccccc3nc2s1 (configuration not stated) | x | 0.1
O=C(c1cc(-c2ccccc2)on1)N(Cc1ccccc1)c1ccccc1 | -0.27 | 0.7

Going on with the list.
SMILES | Ba CapD inh | AID504770
CCOC(=O)C(C#N)C1(c2ccccc2)CCOC(C)(C)C1 (configuration not stated) | 0.48 | 0
O=C(Nc1ccccc1-c1nc2ccccc2s1)c1ccc(Cl)cc1 | 0.2 | x
COc1ccc(OC)c(C2NC(=S)NC(C)=C2C(=O)Nc2cc(Cl)ccc2OC)c1 (configuration not stated) | -0.18 | x
CCOC(=O)c1c(C)n(C)c2c1cc(OC(=O)c1ccccc1OC)c1ccccc12 | -0.23 | x
CC(C)S(=O)(=O)c1nc2ccccc2n1Cc1ccccc1 | x | -0.55
CC(NC(=O)c1cccn1C)C12CC3CC(CC(C3)C1)C2 (configuration not stated) | x | -0.2
O=C(OCC(=O)N(c1ccccc1)C1CCCCC1)C1COc2ccccc2O1 (configuration not stated) | x | 0.05
CCc1c(C)nc(SCC(=O)N(CC)CC)c(C#N)c1C | 0.09 | -0.7
CCc1nnc(NC(=O)CCN2C(=O)/C(=C/c3ccc4c(c3)OCO4)SC2=S)s1 | 0.03 | x
COc1ccc(OCCC(=O)Nc2nnc(C3CC3)s2)cc1 | x | 2
Cc1ccccc1N(CC(=O)Nc1ccccc1N1CCN(C)CC1)S(C)(=O)=O | x | -0.5
CCC(=O)Nc1cc2c3c(c1)C(C)C(=O)N3CCC2 (configuration not stated) | x | -0.9
